Bioassay records from PubChem BioAssay.
KCNQ2 pot – potentiators of rat KCNQ2 potassium channel; O88943; CHO-K1 KCNQ2, FluxOR thallium flux fluorescence; hits give high values; B-score at 10 µM; 310,000 compounds, 0.54% hits;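 active means fluorescence ratio B-score at least 3 SD of library B-scores, with initial fluorescence B-score within 3 SD, cut at about 5.3 in these data; same plate scores as AID 2156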;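 further: B-score of peak minus minimum over baseline fluorescence ratio after K+ and Tl+ stimulus; positive B-score means potentiation of KCNQ2 with more thallium influx and brighter signal; only the inactives scoring about 0 or higher are listed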
Target sequence (O88943 whole entry, looked up): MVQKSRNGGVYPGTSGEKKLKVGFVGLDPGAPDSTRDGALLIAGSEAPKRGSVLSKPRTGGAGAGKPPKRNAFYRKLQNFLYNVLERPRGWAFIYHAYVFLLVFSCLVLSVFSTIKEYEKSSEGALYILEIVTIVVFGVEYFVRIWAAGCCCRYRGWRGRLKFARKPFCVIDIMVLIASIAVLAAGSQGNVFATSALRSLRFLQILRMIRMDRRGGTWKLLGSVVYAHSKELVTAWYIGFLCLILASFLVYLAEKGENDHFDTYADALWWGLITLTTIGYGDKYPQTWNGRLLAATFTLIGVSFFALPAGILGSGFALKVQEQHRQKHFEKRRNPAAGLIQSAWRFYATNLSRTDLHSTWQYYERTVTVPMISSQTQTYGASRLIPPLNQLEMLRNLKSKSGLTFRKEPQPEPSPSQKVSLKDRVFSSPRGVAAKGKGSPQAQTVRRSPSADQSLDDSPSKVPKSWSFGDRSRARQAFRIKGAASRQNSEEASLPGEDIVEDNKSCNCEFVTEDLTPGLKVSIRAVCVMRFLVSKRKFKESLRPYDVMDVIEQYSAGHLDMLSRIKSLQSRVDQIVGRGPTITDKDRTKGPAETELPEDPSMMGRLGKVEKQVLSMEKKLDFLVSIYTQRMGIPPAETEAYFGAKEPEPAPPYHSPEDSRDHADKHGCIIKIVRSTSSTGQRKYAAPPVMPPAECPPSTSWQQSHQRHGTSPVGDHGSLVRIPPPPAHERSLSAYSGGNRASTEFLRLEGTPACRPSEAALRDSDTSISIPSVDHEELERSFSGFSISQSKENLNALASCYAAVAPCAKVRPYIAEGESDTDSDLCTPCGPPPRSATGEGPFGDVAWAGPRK
KCNQ2 pot baseline – further read-out of KCNQ2 pot, marked with its call; B-score; compound at 10 µM; measured here: initial fluorescence intensity artifact check;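 brightness before thallium and not channel activity; 0 = typical well and far values either way flag optical interference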
* marks the source's active call; other numbers are inactive results.

SMILES | KCNQ2 pot | KCNQ2 pot baseline
O=C(Nc1ccccc1O)c1ccc2c(c1)C(=O)N(N1C(=O)c3ccccc3C1=O)C2=O | 0.01 | -0.42
CC1CCCC(C)N1CCNC(=O)CCc1nnc2n(Cc3ccccc3)c(=O)c3ccccc3n12 (stereo unspecified) | 0.66 | -0.1
CC1CCCCC1NC(=O)CCCCn1c(=O)[nH]c2ccsc2c1=O (stereo unspecified) | 1.1 | 2
CCCCC(=O)Nc1cccc(NC(=O)c2cccc(Br)c2)c1 | 0.35 | 0.07
Cc1ccc(NS(=O)(=O)c2cccc(C(=O)NCc3ccccn3)c2)cc1 | 0.86 | 0.62
CC(C)C[C@H](NC(=O)C1CC(=O)N(c2ccc3c(c2)OCO3)C1)C(=O)NC1CCCCC1 (stereo partly specified) | 0.3 | -0.01
COc1ccc(NC(=O)Cn2cnc3c(cnn3C(C)(C)C)c2=O)cc1OC | 0.09 | 0.04
Cc1cc2ccccc2n2c(SCC(=O)NCc3cccs3)nnc12 | 2.1 | 1.4
CN(CC(=O)Nc1cccc(F)c1)C(=O)/C=C/c1cn(Cc2ccccc2)nc1-c1cccnc1 | 0.64 | 0.02
Cc1ccc(C)n1-c1ccccc1N | 1.6 | -1.4
O=c1[nH]c(SCc2ccccc2[N+](=O)[O-])nc2nc[nH]c12 | 0.14 | -0.6
CCc1nc(CNC(=O)C2CCC(=O)N(CCc3ccc(OC)cc3)C2)cs1 (stereo unspecified) | 0.04 | -1.2
CC1SC(=Nc2ccccc2)N(S(=O)(=O)c2ccccc2)C1=O (stereo unspecified) | 0.22 | -0.31
CC(=O)N1CCN(c2ccccc2NC(=O)c2ccc(Br)o2)CC1 | 0.23 | -0.34
C/C(=N/NC(=O)Cc1ccccc1)c1ccc(C)s1 | 0.65 | -0.7

A different layout for part of the listing above:
molecule: CC1SC(=Nc2ccccc2)N(S(=O)(=O)c2ccccc2)C1=O (stereo unspecified)
  KCNQ2 pot: 0.22
  KCNQ2 pot baseline: -0.31
molecule: COc1ccc(NC(=O)Cn2cnc3c(cnn3C(C)(C)C)c2=O)cc1OC
  KCNQ2 pot: 0.09
  KCNQ2 pot baseline: 0.04

New compounds follow
SMILES | KCNQ2 pot | KCNQ2 pot baseline
CN(C)S(=O)(=O)N1CCN(CC(O)COc2ccc3cc(Br)ccc3c2)CC1 (stereo unspecified) | 1.1 | 1.2
c1ccc(CCN2CCN=C2Nc2ccccc2)cc1 | 1.5 | 2.5
COc1ccc(CCn2c(C)cc(C(=O)CSc3nc(N)cc(=O)[nH]3)c2C)cc1 | 0.4 | -0.51
CCCCNC(=O)C(=O)N/N=C/c1ccc(OCC(=O)Nc2cccc(OC)c2)c(OC)c1 | 0.95 | -1.4
Cc1c(NC(=O)COC(=O)c2ccccc2Cl)c(=O)n(-c2ccccc2)n1C | 0.11 | 3.3
CCOc1ccc2c(c1)n([O-])c1c([n+]2=O)CCCC1 | 0.95 | 1.7
Cc1ccc(O)c(NS(=O)(=O)c2cccc3nsnc23)c1 | 0.2 | 1.7
OC1(c2ccccc2)CCN(Cc2ccccc2)CC1 | 1.5 | 0.42
CCOc1ccc(-n2c(=S)sc3c(=O)n(-c4ccccc4)c(SCC(=O)O)nc32)cc1 | 0.77 | 0.82
CCN1CCN(Cc2c(O)ccc3c(=O)c(-c4ccccc4OC)coc23)CC1 | 1.5 | -1.2
O=C(O)c1ccccc1N/N=C\c1ccnc2ccccc12 | 2.8 | -1.5
COc1ccc(-c2nn(-c3ccccc3)cc2/C=C(/C#N)C(N)=O)cc1[N+](=O)[O-] | 1.1 | -0.05
CCn1c(SCC(=O)Nc2sc3c(c2C#N)CCC(C(C)(C)C)C3)nnc1-c1ccco1 (stereo unspecified) | 1.2 | 1
CC(=O)c1cccc(NC(=O)Cn2nc(-c3ccccc3Cl)ccc2=O)c1 | 0.6 | -2.1
CCOCCCNc1nc(=S)[nH]c2cc(OC)c(OC)cc12 | 0.67 | -0.01

Exported with two lines to a compound: entries from further up
Results follow in this order: KCNQ2 pot, KCNQ2 pot baseline
- CC(=O)c1cccc(NC(=O)Cn2nc(-c3ccccc3Cl)ccc2=O)c1
 : 0.6, -2.1
- O=C(O)c1ccccc1N/N=C\c1ccnc2ccccc12
 : 2.8, -1.5

(cont.)
SMILES | KCNQ2 pot | KCNQ2 pot baseline
O=C1CSC(c2cccs2)N1c1ccccc1 (stereo unspecified) | 0.72 | 0.04
Cc1cccc2cc3c(N)c(C#N)sc3nc12 | 0.01 | -2.5
Cc1nn(-c2ccccc2)c2c1C(c1ccco1)C(C#N)=C(N)O2 (stereo unspecified) | 1.1 | -1.9
COc1ccc(S(=O)(=O)NCCc2csc(C)n2)cc1C | 0.16 | 0.08
COc1cc2ccccc2cc1C(=O)Nc1ccc(O)cc1 | 1.5 | 1
O=C(O)CCCNC(=O)/C(=C\c1ccc(Cl)cc1)NC(=O)c1ccccc1Br | 0.88 | 0.35
Cc1cccc(C(=O)NCc2ccc(S(N)(=O)=O)cc2)c1[N+](=O)[O-] | 0.86 | -0.57
C=CCSc1nc(C)c(CC(=O)OCC(C)C)c(=O)[nH]1 | 0.05 | 0.98
CC(C)(C)CC(=O)Nc1nnc(SCC(=O)N2CCCCC2)s1 | 0.74 | -0.08
Cc1cccc(NS(=O)(=O)c2ccc(C(=O)N3CCC3)cc2)c1C | 0.01 | 0.12
COc1ccc(OCCCn2cc(/C=C3/C(=N)N4C=C(C)SC4=NC3=O)c3ccccc32)cc1 | 0.31 | 0.72
Cc1ccc(N(CC(=O)N(C)Cc2ccccc2)S(C)(=O)=O)cc1C | 0.05 | 0.06
CCOc1cccc(-c2c(C(=O)N/N=C(\C)c3cccs3)nnn2-c2nonc2N)c1 | 0.71 | 1.9
CN(C)S(=O)(=O)n1cc(/C=C(\NC(=O)c2ccccc2Cl)C(=O)NCCCn2ccnc2)c2ccccc21 | 0.54 | -1.2
Cn1nc(C(=O)Nc2nc3ccccc3[nH]2)ccc1=O | 0.48 | -0.18
COc1ccc(C(=S)N(C)C)cc1OC | 0.24 | -0.14
CCOC(=O)c1ccc(NC2c3ccccc3C(=O)N2c2ccc(C)cn2)cc1 (stereo unspecified) | 0.97 | -1.5
O=C(Cc1ccccc1)NN1CCCCC1 | 0.05 | 1.3
CCOc1ccc(NC(=S)N2CCc3cc(OC)c(OC)cc3C2COc2ccc3c(C)cc(=O)oc3c2)cc1 (stereo unspecified) | 1.6 | 1.7
Cc1c(CNCCC2=CCCCC2)c(C(=O)O)c(C)n1Cc1ccccc1 | 0.8 | 1.5
COc1cccc2c1O/C(=N\O)C(C(=O)Nc1cccc(C)c1C)C2 (stereo unspecified) | 0.58 | -0.31
CCOc1ccc(C(=O)C[n+]2ccccc2C)cc1 | 0.43 | -0.55
CN(C)C(=O)c1c(-c2ccccc2)oc2ccc(O)cc12 | 0.77 | -0.37
Cn1c(CC2Sc3ccccc3NC2=O)nnc1SCC(=O)c1ccc(Cl)cc1 (stereo unspecified) | 0.12 | 0.27
CCC(=O)NCCc1nc2ccccc2[nH]1 | 1.4 | -1.4
COc1ccc(S(=O)(=O)NCCC(=O)NCc2ccccc2)cc1 | 1.8 | 1.2
CCOc1ccccc1C1C(C(=O)OC)=CN(C)C=C1C(=O)OC | 1.3 | -0.02
Cc1ccc(C)c(S(=O)(=O)N(C(=O)c2ccncc2)c2ccc(OC(=O)c3ccncc3)cc2)c1 | 0.97 | -2.1
CC(CNC(=O)CC(C)(C)C)NC(=O)CC(C)(C)C (stereo unspecified) | 0.15 | -1.1
COC(=O)c1ccc(NC(=O)COC(=O)C2CC(=O)N(Cc3ccccc3)C2)cc1 (stereo unspecified) | 1 | -0.38
Cc1cc(=O)oc(C)c1C(=O)NCc1c(F)cc(F)cc1F | 1.5 | 0.09
Cn1c(CN2CCN(CCO)CC2)c(C#N)c2ccccc21 | 0.96 | 0.19
O=C(N/C(=C\c1cccnc1)C(=O)N1CCOCC1)c1cccc(Br)c1 | 0.34 | -0.23
COc1ccc(C(NC(=O)C(C)C)c2c(O)ccc3ccccc23)cc1OC (stereo unspecified) | 0.86 | -1.3
CN(C(=O)CCNC(=O)Cn1cnc2ccccc2c1=O)c1ccc(Br)cc1 | 0.11 | 0.32
Cc1ccc(-n2nnnc2SCC(=O)NNC(=O)c2ccco2)c(C)c1 | 0.44 | 1.5
COc1ccc(-n2nc3c(c2NC(=O)COc2cccc(OC)c2)CS(=O)(=O)C3)cc1 | 0.71 | 1.1
CCOC(=O)N1CCN(CC(=O)N2CCC(C(N)=O)CC2)CC1 | 0.31 | -0.53
Cc1ccc(C)c(-n2nnnc2Sc2nnnn2-c2ccccc2)c1 | 0.03 | 0.21
Cc1cc(NC(=O)CSc2nc3cc(C)c(C)cc3cc2C)no1 | 0.22 | -0.58
CC(C)Cc1ccc(C(C)C(=O)OCC(=O)c2c[nH]c3ccccc23)cc1 (stereo unspecified) | 0.8 | -0.6
CC1Nc2ncnc(N3CCN(c4ccccc4)CC3)c2N(Cc2ccccc2)C1=O (stereo unspecified) | 1.2 | 0.98
Cc1cc(S(=O)(=O)N2CCN(c3c(C)cccc3C)CC2)ccc1F | 0.47 | 0.56
Cn1c(=O)c2c([nH]c(=O)n2C)n(C)c1=O | 0.61 | 1.2
NC(=O)c1nsc(C(=O)N(c2ccccc2F)C(C(=O)NCc2ccccc2)c2ccc(O)cc2)c1N (stereo unspecified) | 1.4 | 2.1
CCOC(=O)N1CCN(C(=O)CSCc2ccccc2)CC1 | 0.51 | -0.29
COc1cc(C(=O)NCC2CCCO2)ccc1OCc1c(C)noc1C (stereo unspecified) | 0.24 | 0.92
Cc1ccc(NC(=O)CSc2n[nH]c(C)c2[N+](=O)[O-])cc1 | 0.15 | -0.17
O=C(NCCN1CCOCC1)c1ccc(=O)n(Cc2ccc(Cl)cc2)c1 | 0.4 | 0.47
Cc1ccc(NC(=O)CCNS(=O)(=O)c2ccccc2)c(C(=O)c2ccccc2)c1 | 2.5 | 0.65
CCCCN(C(=O)CSc1nnc(-c2ccco2)o1)c1c(N)n(Cc2ccccc2)c(=O)[nH]c1=O | 0.1 | 0.17
CCOC(=O)c1c(S(=O)(=O)NCC(=O)Nc2ccc(C)cc2)c(C)n(C)c1C | 0.29 | 0.01
CN(C(=O)c1cccc(N2C(=O)C3CC=CCC3C2=O)c1)C1CCCCC1 (stereo unspecified) | 1.1 | 0.46
Cc1c(C(=O)O)nn(-c2cccc(C(F)(F)F)c2)c(=O)c1C#N | 0.06 | 0.15
CCOC(=O)c1cnc(-n2nc(C)cc2C)nc1NCc1ccccc1 | 0.26 | -0.42
COc1cccc(-c2nc(CS(=O)CC(=O)NCc3ccccc3)c(C)o2)c1 (stereo unspecified) | 2.6 | 0.49
Cc1ccc(-c2c(C(=O)O)c3ccccc3[nH]c2=O)cc1 | 0.07 | 0.28
COc1cc(/C=N/NC(=O)c2ccc(CSc3nncn3C)cc2)cc(OC)c1O | 1.7 | -1.3
O=C(O)C1CCCN1S(=O)(=O)c1cc(Cl)ccc1Cl (stereo unspecified) | 1.9 | -0.14
CC(C)OC(=O)/C(=C\C=C\c1ccccc1)NC(=O)c1ccccc1 | 0.16 | -2.7

Next results follow.
SMILES | KCNQ2 pot | KCNQ2 pot baseline
COc1cc(/C=C/CN2CCN(Cc3ccc(C)o3)C(CCO)C2)ccc1O (stereo unspecified) | 0.11 | -1
N#CC1=C(N)Oc2cc3ccccc3cc2C1c1cccs1 (stereo unspecified) | 1.2 | 0.32
O=C(O)CCSC(=S)N1CCOCC1 | 0.6 | 0.05
CC(=NC(C)C)C1=C(O)CCC1=O | 0.19 | -0.19
O=C(NCc1ccco1)c1cccn2c(=O)c3c4c(sc3nc12)CCCC4 | 1.8 | 1.3
CCOc1ccccc1N(CC(=O)NC1CCCCC1)C(=O)CCC(=O)Nc1cc(C)ccn1 | 0.13 | 0.23
COC(=O)c1c(NC(=O)c2ccccc2C(=O)O)sc2c1CCC2 | 0.05 | -0.87
O=C(CN1CCCC1)N1CCCc2ccccc21 | 1.4 | 0.26
CCn1c(=N)n(CC(O)c2ccco2)c2ccccc21 (stereo unspecified) | 0.66 | 0.5
O=C(Oc1ccc(-c2cnc3ccccc3n2)cc1)c1ccc(Br)o1 | 0.06 | 2
CCOc1cc(CNCCCN2CCOCC2)cc(Cl)c1OCC(=O)NC(C)(C)C | 0.02 | 0.39
Cc1ccnc(N2CCC(C(=O)Nc3ccc(Oc4ccccc4)cc3)CC2)n1 | 1.9 | -2.3
CC(=O)Oc1cc2oc(=O)c3c(c2cc1Cl)CCC3 | 1.6 | -0.12
COc1ccc(OCc2cc(C(=O)N3C[C@H]4CC[C@H]3C4)no2)c(Cl)c1 | 2.7 | -1.1
Cc1ccc(C(C)NC(=O)c2cccs2)cc1C (stereo unspecified) | 8.5* | 0.69*
Cc1ccc(S(=O)(=O)N2CC(O)C[C@H]2C(=O)OCC(=O)c2ccccc2)cc1 (stereo partly specified) | 1.2 | -0.49
CC(=O)n1cc(Nc2ccc([N+](=O)[O-])cc2)c2ccccc21 | 0.03 | -0.11
O=C(OCC(=O)N1CCCC1)c1cccs1 | 0.3 | -0.76
O=C(CN1CCN(c2ccc(Cl)cc2)CC1)N1CCCC1 | 0.55 | 1.5

Full records from above:
`O=C(CN1CCN(c2ccc(Cl)cc2)CC1)N1CCCC1` in the list: KCNQ2 pot = 0.55; KCNQ2 pot baseline = 1.5
`O=C(OCC(=O)N1CCCC1)c1cccs1` in the list: KCNQ2 pot = 0.3; KCNQ2 pot baseline = -0.76

Given with values ahead of the structure: two of the compounds above.
KCNQ2 pot | KCNQ2 pot baseline | compound
0.03 | -0.11 | CC(=O)n1cc(Nc2ccc([N+](=O)[O-])cc2)c2ccccc21
0.3 | -0.76 | O=C(OCC(=O)N1CCCC1)c1cccs1

Only part of the results is shown; rates above refer to the full screens.
